HPGD block – qHTS Assay for Inhibitors of HPGD (15-Hydroxyprostaglandin Dehydrogenase). purified HPGD, NADH fluorescence kinetic, PGE2 substrate. 15-hydroxyprostaglandin dehydrogenase [NAD(+)] (Homo sapiens), P15428. actives 4.3% (n = 150,000). Potency, µM, without a hit: top-dose activity change, negative = inhibition, hits mostly inhibitors; active = well fitted inhibition curve with a large enough effect (not every such curve was filed as active); inconclusive = small, poorly fitted or top-dose-only effect, or another doubt; inactive = no such curve, though single readings can be large or run the other way;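 also: top concentration of the series not given in the record; plate controls included wells without enzyme; inactives centre near -10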
Target sequence (P15428 whole entry, looked up): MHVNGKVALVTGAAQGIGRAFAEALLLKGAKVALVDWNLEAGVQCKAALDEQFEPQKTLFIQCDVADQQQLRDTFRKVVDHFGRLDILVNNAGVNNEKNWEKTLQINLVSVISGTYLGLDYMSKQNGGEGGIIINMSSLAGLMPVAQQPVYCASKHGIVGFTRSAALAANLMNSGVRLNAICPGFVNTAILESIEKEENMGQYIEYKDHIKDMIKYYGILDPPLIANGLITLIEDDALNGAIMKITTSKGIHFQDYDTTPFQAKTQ
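NADH formation kinetics: reaction with 30 uM PGE2 and 1 mM NAD+ (final), 20 nM enzyme, Tris-HCl pH 8 with Tween 20, after 15 min compound preincubation at room temperature. Fluorescence change, last versus first of five reads.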
* marks the source's active call; other numbers are inactive results; ? = inconclusive; & = joins results of further samples. % is scaled to controls: 0 for no effect and ±100 for the full control effect; potency is read from the fitted curve at half-maximal effect. These rows are one share of the data; count on the stated rates, not on these rows.

HPGD block	SMILES
-3%	COc1ccc(CCNC(=O)CCC(=O)N2CCN(S(=O)(=O)c3ccccc3)CC2)cc1OC
-8%	O=C(Nc1cc(C(F)(F)F)ccc1N1CCOCC1)c1ccccc1F
-12%	CC(CNC(=O)c1ccc(-c2ccccc2)cc1)CN(C)C (stereo unspecified)
?	O=C(Nc1ccc2ccccc2c1)/C(=C\c1ccc2c(c1)OCO2)NC(=O)c1ccco1
-9%	Cc1cccc(C)c1N(CC(=O)N/N=C/c1cc(Br)c(C)o1)S(C)(=O)=O
?	Cc1ccc2nc(-c3cc(N)cc(N)c3)oc2c1
-10%	CCc1c(C)c(C#N)c2nc3ccccc3n2c1Cl
-19%	CCOC(=O)C(Sc1ncc(C#N)c(N)n1)C(C)C (stereo unspecified)
-6%	Cc1ccc(C(C)C)c(OCCCN2CC(C)OC(C)C2)c1 (stereo unspecified)
-19%	O=S(=O)(c1cccc(Cl)c1)N1CCCC1
-4%	O=C(CSc1ccc(-c2ccc(F)cc2)nn1)NCc1ccco1
7.1µM*	C=CCc1cccc(C2Nc3ccccc3C(=O)N2O)c1O (stereo unspecified)
?	CCOC(=O)c1c(NC(=O)CN2CCCCC2)sc2c1CCCC2O (stereo unspecified)
-8%	CSc1nc2c(c(C(F)(F)F)n1)CC(C)CC2 (stereo unspecified)
-8%	Cc1cc(C)cc(N(C(=O)Cn2nnc(-c3ccccc3)n2)C(C(=O)NC2CCCCC2)c2ccccn2)c1 (stereo unspecified)
32µM*	Cc1ccc(OCC(=O)c2ccc3c(c2)CCCC3)cc1C
-2%	Cc1noc(C)c1C(=O)N1CCN(Cc2ccc3c(c2)OCO3)CC1
-10%	CC1Nc2nc(NC(=O)C(C)(C)C)[nH]c(=O)c2N(C)C1C (stereo unspecified)
-14%	CC1CCCCN1Cc1ccc(-c2nn[nH]n2)cc1 (stereo unspecified)
-2%	Cc1ccc(S(=O)(=O)CCC(=O)OCC(=O)c2ccc(C)c(C)c2)cc1
-3%	COc1ccc(N=C2NN=C(c3ccc4c(c3)OCCO4)CS2)cc1
7.1µM*	O=c1[nH]n2c(=O)c3c([nH]c2c1N=Nc1cccc(Cl)c1)CCC3
3%	O=C(CCN1C(=O)C2CC=C(Cl)CC2C1=O)Nc1ccccc1O (stereo unspecified)
-5%	CCN(c1ccccc1)S(=O)(=O)c1ccc(OC)c(NC(=O)CNCC(C)O)c1 (stereo unspecified)
-11%	Cn1c(C(=O)N2CCCC(C(=O)NCc3ccc4c(c3)OCO4)C2)cc2sccc21 (stereo unspecified)

3 of the entries above in order of their number in HPGD block, highest first:
HPGD block	SMILES
-8%	CSc1nc2c(c(C(F)(F)F)n1)CC(C)CC2 (stereo unspecified)
-11%	Cn1c(C(=O)N2CCCC(C(=O)NCc3ccc4c(c3)OCO4)C2)cc2sccc21 (stereo unspecified)
-19%	O=S(=O)(c1cccc(Cl)c1)N1CCCC1

In the list so far, these have an NH in an aromatic ring.
HPGD block	SMILES
-10%	CC1Nc2nc(NC(=O)C(C)(C)C)[nH]c(=O)c2N(C)C1C (stereo unspecified)
-14%	CC1CCCCN1Cc1ccc(-c2nn[nH]n2)cc1 (stereo unspecified)
7.1µM*	O=c1[nH]n2c(=O)c3c([nH]c2c1N=Nc1cccc(Cl)c1)CCC3

Other compounds:
HPGD block	SMILES
-18%	COc1ccc(-c2nnc(SCc3ncc(-c4ccccc4)o3)o2)cc1
-6%	CN1C(=O)C(O)(c2sc(N)nc2-c2ccccc2)c2ccccc21 (stereo unspecified)
?	FC(F)(F)c1cc(-c2ccco2)nc(-n2nnc3ccccc32)n1
?	O=C(COC(=O)c1cc(S(=O)(=O)N2CCOCC2)ccc1O)NCCc1ccccc1
-19%	CN1CCN(c2ccccc2NC(=O)c2ccc(-c3ccccc3)cc2)CC1
?	CCc1c(C)sc(NC(=O)c2cc(-c3ccc(OC)c(OC)c3)on2)c1C#N
-6%	CCn1nc(C)c(C2C(C#N)=C(N)OC3=C2C(=O)CC(C)(C)C3)c1C (stereo unspecified)
-1%	CCNS(=O)(=O)c1ccc2c(c1)n(C)c(=O)n2C
-9%	CCOc1ccc(CN(CCC#N)C(=S)NC(=O)c2ccccc2)cc1
-1%	Cc1ccc(Nc2cc(C)nc3nnnn23)cc1
-17%	Cc1ccc(O)c(C(=O)c2cc(C(=O)NCCc3ccccc3)c(=O)n(CCc3ccccc3)c2)c1
-2%	Cc1cccc(N(CC(=O)Nc2ccccc2F)S(C)(=O)=O)c1
-5%	NC(=O)C1(N2CCCCC2)CCN(CC(=O)Nc2ccc(Oc3ccccc3)cc2)CC1
-13%	CS(=O)(=O)N1CCN(c2ccccc2NC(=O)c2ccco2)CC1
-4%	CC(=O)c1c(N2CCOCC2)nc(=S)n(-c2ccccc2)c1C
-21%	COC(=O)CC1c2cc(OC)c(OC)cc2CC(=O)c2cc(OC)c(OC)cc21 (stereo unspecified)
-24%	CN1C(=S)N(c2ccccc2)C(=O)/C1=C/c1cccs1
-14%	O=C(Cn1cnc2c(nnn2-c2cccc(Cl)c2)c1=O)N1CCCC1
-13%	O=C(Nc1ccccc1)Nc1ccc(Br)c(Cl)c1
-8%	CNC(=S)N1N=C(c2ccccc2)CC1c1ccc(Br)cc1 (stereo unspecified)
-3%	Cc1cc(C)c2ccc(C(=O)O)nc2c1O
-15%	CC(=O)NC1CC2CCCC(C1)N2S(=O)(=O)c1cccc(F)c1 (stereo unspecified)
-2%	CCN(CC)C(C)C(=O)NCC1(c2ccccc2)CCOCC1 (stereo unspecified)
?	O=C(Nc1ccc(-c2cn3ccccc3n2)cc1)c1ccc(Cl)cc1
-4%	CCCC(=O)Nc1ccc(Cl)c(NC(=O)CC)c1
-13%	Cc1nn(Cc2cccc(F)c2)c(C)c1NC(=O)c1ccc(COc2ccccc2Cl)cc1
-9%	Cc1ccc(C)c(N=C2NC(=O)CS2)c1
-7%	CC1(C)Cc2nc3nc(SCC(=O)NCc4ccccc4)n(-c4ccccc4)c(=O)c3cc2CO1
-11%	Cc1onc(-c2ccccc2)c1C(=O)Oc1cccnc1
-23%	CCCCOC(=O)C(C)Nc1n[nH]c(=S)[nH]c1=O (stereo unspecified)
-7%	O=C(CSc1nnnn1-c1ccc(F)cc1)Nc1nc2ccccc2s1
-12%	CCc1ccc(C(=O)CN2C(=O)C(C)N(c3ccc(C)cc3)C2=O)cc1 (stereo unspecified)
?	COc1ccc(C2c3c(ccc4ccccc34)Oc3ncn4nc(-c5ccco5)nc4c32)cc1 (stereo unspecified)
-2%	CC(=O)c1cnc2nc(C(F)(F)F)nn2c1C
-7%	COCCNC(=O)CN1C(=O)CSc2ncccc21
-8%	COC(=O)C(CCSC)NC(=O)CNS(=O)(=O)c1ccc(Cl)cc1 (stereo unspecified)
-24%	O=C(NCc1ccco1)c1cc2ccccc2o1
-8%	CCOC(=O)N1CCN(S(=O)(=O)c2ccc(C(=O)Nc3nnc(C)o3)cc2)CC1
-10%	COc1cc(/C=c2\sc3nc(-c4ccncc4)nn3c2=O)ccc1OC(C)=O
2%	O=C(NCC1CCCO1)C1CCCN(S(=O)(=O)c2cccc3nsnc23)C1 (stereo unspecified)
-8%	CC(C)(C)c1cc(CCC(=O)N2CCNCC2)c(C(C)(C)C)cc1O
-12%	O=C(NC(=S)N1CCOCC1)c1ccc([N+](=O)[O-])cc1
-5%	Cc1sc2ncnc(NCCN3CCOCC3)c2c1C
-11%	O=C1C=C(NCc2ccccc2)C2(CCCCC2)O1
-2%	Cc1ccnc(NC(=O)Cn2ccc([N+](=O)[O-])n2)c1
-8%	O=C1Nc2ccccc2C(O)(C(=O)N2CCCCC2)N1c1ccccc1 (stereo unspecified)
-3%	CCN(CC)CCn1c(=N)n(CCOc2ccccc2)c2ccccc21
-7%	Cc1c(NC(=O)c2cc(-c3cccs3)on2)c(=O)n(-c2ccccc2)n1C
-7%	CCc1cccc2c1NC(=O)C21N2CCCC2C(C(=O)c2ccc3ccccc3c2)C12C(=O)Nc1ccccc12 (stereo unspecified)
-12%	CO/N=C(/CS(=O)(=O)c1ccc(Br)cc1)c1ccc(OC)cc1

6 records picked at random from the list so far:
HPGD block	SMILES
2%	O=C(NCC1CCCO1)C1CCCN(S(=O)(=O)c2cccc3nsnc23)C1 (stereo unspecified)
-9%	Cc1ccc(C)c(N=C2NC(=O)CS2)c1
-7%	COCCNC(=O)CN1C(=O)CSc2ncccc21
-10%	COc1cc(/C=c2\sc3nc(-c4ccncc4)nn3c2=O)ccc1OC(C)=O
-12%	CO/N=C(/CS(=O)(=O)c1ccc(Br)cc1)c1ccc(OC)cc1
-7%	Cc1c(NC(=O)c2cc(-c3cccs3)on2)c(=O)n(-c2ccccc2)n1C

(more compounds)
HPGD block	SMILES
-11%	CCC1=C(OC(=O)N(CC)CC)N2C(=O)OC(=NCc3ccccc3)[C@]2(C)[C@H]2C1=CC[C@H]1C(=O)NC(=O)[C@H]12
-1%	COc1ccc(-n2c(=O)c(-c3ccc(F)cc3)nc3cnc(OC)nc32)cc1
-4%	Cc1cc(C)n(C(=O)c2ccncc2)n1
-14%	COc1cc(NS(=O)(=O)c2cccc3nsnc23)c(C(=O)O)cc1OC
?	Nc1cc(C(=O)OCC(=O)NCc2ccc(F)cc2)ccc1Cl
-5%	CC(C)C[C@@H](CC(=O)N[C@@H](CCCN)CC(=O)N[C@@H]1CCNC[C@H]1C(=O)N[C@H](CC(=O)N[C@@H](CCC(=O)O)CC(=O)O)Cc1ccccc1)NC(=O)[C@@H]1CNCC[C@H]1N
-10%	CC(Sc1nnc(C2CCCCC2)n1N)C(=O)NCc1ccc2c(c1)OCO2 (stereo unspecified)
?	O=C1Nc2ccccc2OC1CC(=O)N1CCCC1 (stereo unspecified)
-15%	COC(=O)CSc1nnc(-c2ccoc2C)n1-c1ccc(OC)cc1
-19%	CCCC(=O)c1cc2ccccc2oc1=O
-4%	COc1ccccc1C(=O)N/C(N)=N/c1nc2ccccc2o1
32µM*	CN1CCN(C(=O)c2cc(-c3ccco3)on2)CC1
-10%	Cn1ncc(N)c1C(=O)Nc1cccc(C(F)(F)F)c1
-9%&-16%	C[C@@H](C(=O)Nc1ccc2ccccc2c1)[C@H]1C[C@]1(C)[C@H](NC(=O)c1cnccn1)c1ccccc1
-7%	Cc1ccccc1NC(=O)CCC(=O)OCC(=O)c1ccc(-c2ccccc2)cc1
-12%	CCn1c2ccccc2c2nc3ccccc3nc21
-5%	CC1(C)CC(=O)C([N+](=O)[O-])=C(NCCCO)C1
-15%	COCCN(C(=O)Cc1cccs1)C(C(=O)NCc1ccc(OC)cc1)c1ccc(OC)cc1 (stereo unspecified)
-8%	C=CCSc1nnc2c(n1)OC=Nc1ccccc1-2
-24%	COc1cccc(/C=C(/C(=O)OCC(=O)NC2CCCC(C)C2C)c2ccccc2)c1 (stereo unspecified)
2%	CN(C(=O)CSc1nnc(-c2ccncc2)n1C)C1CCS(=O)(=O)C1 (stereo unspecified)
-3%	COc1ccc(/C=N/NC(=O)c2cnccn2)cc1O
-21%	O=C(O)CCn1c(SCc2cccc3ccccc23)nc2ccccc21
-3%	NS(=O)(=O)c1ccc(NC(=O)CSc2ccc3ccccc3n2)cc1
-15%	CC(=O)c1cccc(NC(=O)/C(=C\c2ccco2)NC(=O)c2cccs2)c1
-4%	c1ccc(CCN2CN=C(Nc3nc4ccccc4o3)NC2)cc1
14µM*	CCOc1ccc(C(=S)NC2CCCCC2)cc1
3%	CC(Oc1cccc(Cl)c1)C(=O)Nc1cc(=O)n(C)c(=O)n1C (stereo unspecified)
-27%	COc1cc(/C=C\C(=O)NCc2ccc3[nH]c(C)cc3c2)cc(OC)c1OC
-4%	CCOc1cccc(C2NC(=S)NC(C)=C2C(=O)Nc2ccccc2)c1 (stereo unspecified)
?	COc1cc(/C=N/NC(=O)c2ccc(CSc3nc4ccccc4[nH]3)cc2)cc(OC)c1OC
-13%	Cc1cc2oc(=O)cc(-c3ccccc3)c2c(C)c1-c1cccc(N)c1
-8%	CCCCC/C=C\C/C=C\CCCCCCCCCC(=O)NCC(=O)O
-10%	C/C(=N\N1CCN(C2c3ccccc3-c3ccccc32)CC1)c1ccncc1
-8%	Cn1cc(/C=C2\SC(=O)N(c3ccccc3)C2=O)c2ccccc21
-11%	Cc1cc(C)nc(NS(=O)(=O)c2ccc(NC(=O)c3cc(-c4ccccc4)nc4ccccc34)cc2)n1
-3%	COc1ccccc1CN1CC2(CCN(S(C)(=O)=O)CC2)C1
?	COc1ccc(-c2c(NC(C)=O)n(C)c3ccccc3c2=O)cc1
-20%	COc1ccc(S(=O)(=O)n2cnc3cc(C)c(C)cc32)cc1
-5%	COc1ccc(NC(=O)N2CC[C@@]3(CCCN(C(=O)c4cc(C(F)(F)F)cc(C(F)(F)F)c4)C3)C2)cc1
-10%	CCOc1ccccc1C(=O)Nc1ccc(S(=O)(=O)N2CCOCC2)cc1
2%	O=C(Nc1ccc(F)cc1)c1ccccc1S(=O)(=O)c1ccccc1[N+](=O)[O-]
-28%	Nc1ccn(-c2ccc(Cl)cc2)c(=O)c1
-14%	O=C(COC(=O)CCN1C(=O)c2ccccc2C1=O)Nc1ccc(S(=O)(=O)N2CCCC2)cc1
-11%	O=C(CSc1nnc2ccccn12)Nc1cccc(S(=O)(=O)N2CCOCC2)c1
-3%	O=C1NCC(O)=C1C=NCCCO
-14%	CCCCCn1c(=O)[nH]c2cc(C(=O)NCCCN(CC)CC)ccc2c1=O
-14%	Cc1cc(C(=O)Nc2sc3c(c2C#N)CCC(C)C3)no1 (stereo unspecified)
